Assay outcomes as filed in PubChem.
MARV entry inh: qHTS for inhibitors of binding or entry into cells for Marburg Virus | Marburg virus pseudotyped entry inhibition, cell reporter; control for the full effect not named in the record; about a third of the inactives were read at about 46 µM | Potency, µM (highest dose often 37.8 µM), without a hit: top-dose activity change, negative = inhibition, actives largely listed as inhibitors | actives 1.8% (n = 300,000) | AID 540276, 2011; active = well fitted inhibition curve with a large enough effect; inconclusive = small, poorly fitted or top-dose-only effect, or effect the other way; inactive = flat fitted curve, though single readings scatter; tested in HEK293 cells; about a fifth of its hits are not listed in these tables; further: on the % scale 0 is the no-effect control and ±100 the full control effect; luciferase read-out
Cruzain Triton: qHTS Assay for Promiscuous and Specific Inhibitors of Cruzain (with detergent); Cruzipain (Trypanosoma cruzi), P25779; purified cruzain, Z-FR-AMC fluorescence, 0.01% Triton; Potency, µM, for the others: max response, negative = inhibition, hits mostly inhibitors; actives 0.43% (n = 200,000); active means well fitted curve in the direction sought with a large enough effect; inconclusive means small, poorly fitted or top-dose-only effect, or another doubt; inactive means no such curve, though single readings can be large; an effect the other way counts as inactive or inconclusive;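 further: plate controls were neutral wells for no effect and buffer without enzyme for full effect; nearly all actives have a fitted effect of over 40% in size; top concentration of the series not given in the record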
Target sequence (P25779 123-467 limits assumed): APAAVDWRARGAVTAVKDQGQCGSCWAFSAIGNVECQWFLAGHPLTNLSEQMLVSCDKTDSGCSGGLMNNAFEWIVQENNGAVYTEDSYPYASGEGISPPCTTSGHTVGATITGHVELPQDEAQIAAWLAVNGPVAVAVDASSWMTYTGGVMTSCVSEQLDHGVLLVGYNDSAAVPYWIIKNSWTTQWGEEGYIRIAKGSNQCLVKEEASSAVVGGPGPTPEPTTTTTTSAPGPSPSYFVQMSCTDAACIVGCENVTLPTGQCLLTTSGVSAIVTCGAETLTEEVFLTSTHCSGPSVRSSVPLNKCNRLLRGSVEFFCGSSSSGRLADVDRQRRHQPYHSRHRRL
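Enzyme 1.5 nM, Z-FR-AMC 2 uM, NaOAc 100 mM pH 5.5, DTT 5 mM, Triton X-100 0.01%; 15 min RT compound preincubation; kinetic ex360/em450, 60 s delta.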
NS1 inh: qHTS Assay for Inhibitors of Influenza NS1 Protein Function; S. cerevisiae slowed by influenza A NS1, growth recovery by OD600; Potency, µM (series often up to 46.1 µM), for the others: top-dose activity, positive = more growth; actives 0.4% (n = 270,000); AID 2326, 2010; further: actives are rising curves; nearly all actives have a fitted effect of over 50% in size
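Growth recovery, yeast-based: influenza A NS1 expressed in S. cerevisiae causes slow growth, and suppressors are detected by OD600. The parent strain without NS1 is used as positive control.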
RE007 growth inh: qHTS Assay for Inhibitors of the HIV-1 protein Vpr. S. pombe RE007 Vpr strain, BacTiter-Glo ATP luminescence, 24 h; control for the full effect not named in the record. AID 651644, 2012. actives 0.21% (n = 360,000). Potency, µM (doses to about 92.2 µM), for the others: top-dose activity change, negative = less growth; active = well fitted falling curve with a large enough effect; inconclusive = small, poorly fitted or top-dose-only effect; inactive = no such curve, though single readings can be large or run the other way;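 further: on the % scale 0 is the no-effect control and ±100 the full control effect; nearly all actives have a fitted effect of over 50% in size; the assay follows cell death caused by Vpr and the record does not say whether a fall means rescue or toxicity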
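Fission yeast strain RE007, carrying one chromosomally integrated HIV-1 vpr copy, was seeded at OD 0.01 in PMG+AL medium with 23 nL pinned compound. After 24 h at 30 °C and 99% humidity, viability was read by BacTiter-Glo luminescence.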
2A StopGo: High Throughput Screening for Foot and Mouth Disease Virus Antivirals. human cells with a luciferase reporter of 2A StopGo recoding; control for the full effect not named in the record. Potency, µM (highest dose often 57.9 µM), for inactives: at the top dose signal change, negative = less light. actives 1.2% (n = 410,000); active = well fitted falling curve with a large enough effect; inconclusive = small, poorly fitted or top-dose-only effect; inactive = no such curve, though single readings can be large or run the other way; tested in HEK293T cells; further: on the % scale 0 is the no-effect control and ±100 the full control effect; nearly all actives have a fitted effect of over 45% in size; luciferase light after 4 h
LASV entry inh: qHTS for Inhibitors of binding or entry into cells for Lassa Virus | Potency, µM (highest dose often 37.9 µM), for inactives: at the top dose activity change, negative = inhibition, most hits filed as inhibitors | Lassa virus pseudotype entry inhibition, cell reporter; control for the full effect not named in the record | actives 1.2% (n = 300,000); active means well fitted inhibition curve with a large enough effect; inconclusive means small, poorly fitted or top-dose-only effect, or effect the other way; inactive means flat fitted curve, though single readings scatter; tested in HEK293 cells; further: on the % scale 0 is the no-effect control and ±100 the full control effect; nearly all actives have a fitted effect of over 50% in size; luciferase read-out
SARS PLpro yeast: qHTS of Yeast-based Assay for SARS-CoV PLP | S. cerevisiae expressing SARS-CoV PLpro, growth rescue; control for the full effect not named in the record | Potency, µM (titrated, usually from 32.9 µM), for the others: at the highest dose activity, positive = growth rescue | actives 0.19% (n = 330,000); further: 0% is about no effect; nearly all actives have a fitted effect of over 55% in size; growth read by luminescence after 48 h
Cruzain inh noDet: qHTS Assay for Promiscuous and Specific Inhibitors of Cruzain (without detergent) | Cruzipain (Trypanosoma cruzi), P25779 | purified cruzain, Z-FR-AMC fluorescence, no detergent | Potency, µM, inactives show max response, negative = inhibition, most hits filed as inhibitors | actives 2.3% (n = 200,000) | AID 1476, 2009; active means well fitted curve in the direction sought with a large enough effect; inconclusive means small, poorly fitted or top-dose-only effect, or another doubt; inactive means no such curve, though single readings can be large; an effect the other way counts as inactive or inconclusive;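 further: plate controls were enzyme without inhibitor for no effect and buffer without enzyme for full effect; nearly all actives have a fitted effect of over 40% in size; top concentration of the series not given in the record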
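Detergent-free condition (0.00005% Triton X-100) in acetate buffer pH 5.5 with DTT. 1.5 nM enzyme and compound were pre-mixed 15 min, then 2 uM Z-FR-AMC substrate added; reaction progress from fluorescence change between first and third reads (60 s).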
Starred values were filed as active, the others as inactive; ? = inconclusive; . = not tested or not shown; & = joins results of further samples; [ ] = remark or other dose. Unless noted, the call rests on the fitted dose curve; in most records, active means well fitted rising curve with a large enough effect; inconclusive means small, poorly fitted or top-dose-only effect; inactive means no such curve, though single readings can be large or run the other way. Potency means the concentration at half of the fitted maximal effect.

SMILES	MARV entry inh	Cruzain Triton	NS1 inh	RE007 growth inh	2A StopGo	LASV entry inh	SARS PLpro yeast	Cruzain inh noDet
CC#CC[N+](C)(C)CCCCCC	1%[46.1 µM]	.	6%	13%	-17%	-1%[46.1 µM]	-1%	.
COc1ccccc1N1CCN(C(CNC(=O)C2CCCCC2)c2cccnc2)CC1 (stereo not given)	-4%	6.4%	-9%	-5%	-12%	.	3%	1%
O=C(CCNS(=O)(=O)c1ccc2c(c1)CCN2C(=O)C1CC1)N1CCN(c2cccc(Cl)c2)CC1	.	0.5%	.	.	?	?	.	?
CCOc1cc(/C=N/NC(=O)CCn2nnc3ccccc32)ccc1O	?	.	5%	6%	1%	-3%[46.1 µM]	0%	.
COC(=O)c1cc2oc(C)cc2n1Cc1ccccc1Cl	-12%[46.1 µM]	-6.9%	.	.	-1%	.	.	-8%
Cc1ccccc1-c1nc(CS(=O)(=O)CC(=O)NCc2cccc(Cl)c2)c(C)o1	-12%[46.1 µM]	-8.9%	.	.	-9%	10%[46.1 µM]	.	-6%
Cc1ccc(C(=O)NCC(=O)OCC(=O)Nc2ccc3[nH]c(=O)[nH]c3c2)cc1	-1%[46.1 µM]	.	.	3%	-14%	5%	0%	.
Fc1ccc(CSc2ccc3nnc(-c4cccs4)n3n2)cc1	.	-2.0%	-2%	3%	-6%	.	3%	?
O=C(CSc1nc(NS(=O)(=O)c2ccccc2)cc(=O)[nH]1)Nc1ccc(Cl)cc1	.	.	4%	-1%	12%	.	0%	.
O=C(c1ccc(Cl)cc1)c1cnc(Nc2ccccc2)s1	?	1.7%	4%	-1%	69%[activator]	?	-2%	16µM*
CCOc1ccccc1-c1nc(-c2cc3ccc(C)cc3[nH]c2=O)no1	-3%	-10%	-20%	-10%	14%	-25%	7%	22%
Cc1ccc(Cl)c(NC(=O)COC(=O)c2ccccc2C(=O)c2ccc(Cl)c([N+](=O)[O-])c2)c1Cl	4.6µM*	-5.2%	7%	1%	?	13µM*	-3%	?
COC(=O)c1cc(C(=O)OCC(=O)N2CCCCC2)cc([N+](=O)[O-])c1	-4%[46.1 µM]	.	.	-6%	-12%	-13%[46.1 µM]	3%	.
O=C(NC(=S)Nc1cccc(Cl)c1N1CCCCC1)c1cccs1	?	-2.2%	16%	10%	?	?	-11%	?
CC(C)CC1(C)NC(=O)N(CC(=O)Nc2ccccc2Br)C1=O (stereo not given)	0%[46.1 µM]	.	.	-6%	2%	-5%[46.1 µM]	0%	.
COc1ccc(S(=O)(=O)N2CCOC2CNC(=O)C(=O)NCc2ccco2)cc1OC (stereo not given)	?	.	0%	15%	-11%	2%	1%	.
CCOc1ccc(N2CC(C(=O)Nc3nnc(Cc4ccc(OC)c(OC)c4)s3)CC2=O)cc1 (stereo not given)	-28%	.	11%	4%	-10%	23%	-2%	.
CN(CC(=O)NCc1ccccc1Cl)S(=O)(=O)c1ccc2c(c1)n(C)c(=O)c(=O)n2C	.	.	-3%	2%	-13%	.	0%	.
Cn1c(Cc2ccccc2)nnc1SCC(=O)Nc1ccccc1	3%[46.1 µM]	.	3%	4%	3%	2%	-1%	.
COc1ccccc1CNC(=O)Cn1cccc1	-1%	-1.1%	9%	-16%	-8%	-1%	.	-9%
COc1ccc(NC(=O)c2sc3nc4n(c(=O)c3c2C)CCC4)c(OC)c1	.	-7.2%	.	.	-7%	-5%[46.1 µM]	.	10%
Cc1ccc(-n2ncc3c2CC(C)(C)CC3NC(=O)CCc2cnn(C)c2)cc1 (stereo not given)	7%	.	8%	28%	-28%	14%	1%	.
COc1ccc(OC)c(CCNC(=O)c2cc3c(=O)n(C)c4ccccc4c3n2C)c1	13%[46.1 µM]	-3.2%	.	.	?	?	.	?
COc1ccc(NS(=O)(=O)c2cc(N)ccc2N2CCOCC2)cc1	13%[46.1 µM]	.	6%	-3%	29%	?	0%	.
COc1ccc(S(=O)(=O)N[C@@H](Cc2ccccc2)C(=O)N2CC[C@@]3(O)CCCC[C@H]3C2)cc1	?	4.0%	-13%	14%	-24%	-14%	-3%	20%

Continuation:
SMILES	MARV entry inh	Cruzain Triton	NS1 inh	RE007 growth inh	2A StopGo	LASV entry inh	SARS PLpro yeast	Cruzain inh noDet
Cc1nc(=O)c(-c2ccccc2)c(C)n1-c1ccccc1C(=O)O	?	1.8%	-5%[9.22 µM]	9%	10%	-5%	0%	-1%
S=c1nc(NCc2ccc3c(c2)OCO3)c2ccccc2[nH]1	.	.	3%	22%	21%	.	-2%	.
CCOc1ccc(CN2CCN(Cc3[nH]c4ccccc4c3C)CC2CCO)cc1 (stereo not given)	.	.	5%	6%	?	.	-1%	.
COc1ccc(CCNC(=O)c2ccc3c(c2)N(Cc2ccccc2F)C(=O)c2ccccc2S3=O)cc1OC (stereo not given)	-28%[46.1 µM]	1.7%	.	.	-17%	?	.	?
CCCCCCC(O)(CCN1CCCCC1)c1ccccc1 (stereo not given)	13µM*	.	2%	-11%	-14%	?	-2%	.
COc1cccc(C(=O)NCC(c2cccs2)N2CCc3ccccc32)c1 (stereo not given)	?	.	.	0%	0%	?	2%	.
COc1cc2c(cc1OC)C(C)N(S(=O)(=O)c1cnc(Cl)c(Cl)c1)CC2 (stereo not given)	.	.	-4%	-11%	?	.	0%	.
CCc1ccc(Nc2n[n+](-c3ccccc3)c(-c3c(Cl)cccc3Cl)s2)cc1	.	.	-92%	-17%	28µM*	.	-6%	.
Cc1ccc(Sc2ccc(NC(=O)CCl)cc2)c(C)c1	-21%	-5.6%	.	-23%	32µM*	?	-17%	17%
O=C(Nc1nc(-c2cc(Cl)sc2Cl)cs1)c1ccccc1	?	0.4%	-4%	-28%	-15%	9%	-33%	?
O=C(NC1CC1)C1=C[C@@H](c2ccc3c(c2)OCO3)C[C@@H](OCc2ccc(CO)cc2)O1	.	.	-4%	-4%	-3%	.	0%	.
COc1ccccc1-c1nnc(-c2ccc(N3CCOCC3)cc2)o1	?	-11%	-9%	-2%	35%[activator]	0%	4%	?
Cc1cccc(NC(=S)NNC(=O)c2ccco2)c1	?	1.8%	3%	11%	66%[activator]	23%	1%	-6%
CC(=O)N(C)C1(c2nnnn2CCOC(=O)Nc2cccc3ccccc23)CCCC1	-14%&-14%	4.7%	-9%	10%	-16%	1%	0%	5%
CC1(C)C2([N+](=O)[O-])CN(CCO)CC1([N+](=O)[O-])CN(CCO)C2	-2%	3.9%	-3%	3%	9%	?	-18%	4%
CCOC(=O)c1cc(C)sc1NC(=O)CSc1nnnn1C	6%	.	0%	0%	-1%	4%	-5%	.
CCN(CCCNC(=O)Cn1ncc2c3ccccc3n(C)c2c1=O)c1cccc(C)c1	-14%[46.1 µM]	-2.1%	.	.	-16%	24%[46.1 µM]	.	-6%
NC(=S)Nn1c(CCC(=O)O)ccc1-c1ccccc1	13%	-2.4%	6%	5%	-18%	5%	11%	6%
Cc1cc(C(=O)NCc2csc(-c3ccccc3)n2)no1	25%[46.1 µM]	.	-34%	3%	15%	22%[46.1 µM]	-6%	.
CC(C)(C)NC(=O)NC(=O)CN1CCN(C(c2ccccc2)c2ccccc2)CC1	?	.	.	2%	?	?	-2%	.
NNC(=S)Nc1ccccc1Cl	-22%[46.1 µM]	.	0%	-16%	2%	-3%[46.1 µM]	0%	.

Single records, from the list above.
COc1ccc(CCNC(=O)c2ccc3c(c2)N(Cc2ccccc2F)C(=O)c2ccccc2S3=O)cc1OC (stereo not given) is listed as MARV entry inh = -28%[46.1 µM]; Cruzain Triton = 1.7%; NS1 inh = .; RE007 growth inh = .; 2A StopGo = -17%; LASV entry inh = ?; SARS PLpro yeast = .; Cruzain inh noDet = ?
COc1cc2c(cc1OC)C(C)N(S(=O)(=O)c1cnc(Cl)c(Cl)c1)CC2 (stereo not given) is listed as MARV entry inh = .; Cruzain Triton = .; NS1 inh = -4%; RE007 growth inh = -11%; 2A StopGo = ?; LASV entry inh = .; SARS PLpro yeast = 0%; Cruzain inh noDet = .
COc1cccc(C(=O)NCC(c2cccs2)N2CCc3ccccc32)c1 (stereo not given) is listed as MARV entry inh = ?; Cruzain Triton = .; NS1 inh = .; RE007 growth inh = 0%; 2A StopGo = 0%; LASV entry inh = ?; SARS PLpro yeast = 2%; Cruzain inh noDet = .

Quoted at random: 4 compounds from above, in no set order.
SMILES	MARV entry inh	Cruzain Triton	NS1 inh	RE007 growth inh	2A StopGo	LASV entry inh	SARS PLpro yeast	Cruzain inh noDet
O=C(CCNS(=O)(=O)c1ccc2c(c1)CCN2C(=O)C1CC1)N1CCN(c2cccc(Cl)c2)CC1	.	0.5%	.	.	?	?	.	?
CC#CC[N+](C)(C)CCCCCC	1%[46.1 µM]	.	6%	13%	-17%	-1%[46.1 µM]	-1%	.
COC(=O)c1cc(C(=O)OCC(=O)N2CCCCC2)cc([N+](=O)[O-])c1	-4%[46.1 µM]	.	.	-6%	-12%	-13%[46.1 µM]	3%	.
COc1ccccc1-c1nnc(-c2ccc(N3CCOCC3)cc2)o1	?	-11%	-9%	-2%	35%[activator]	0%	4%	?
